Screening results (PubChem)
VACV Venus inh = vaccinia inhibition (Venus reporter). Vaccinia virus Venus reporter expression, fluorescence. Potency, µM (series often up to 36.5 µM), for inactives: at the top dose activity change, negative = inhibition, hits mostly inhibitors. actives 0.46% (n = 330,000); active means well fitted inhibition curve with a large enough effect; inconclusive means small, poorly fitted or top-dose-only effect; inactive means no such curve, though single readings can be large or run the other way; tested in A549 cells; further: nearly all actives have a fitted effect of over 30% in size; inactives centre near -10
Vaccinia mCherry = vaccinia inhibition (mCherry reporter) | actives 0.63% (n = 310,000) | AID 720579 | Vaccinia virus mCherry reporter infection, fluorescence; about a quarter of the inactives have no number | Potency, µM (doses to about 36.5 µM), inactives show at the top dose activity change, negative = inhibition, actives largely listed as inhibitors; active = well fitted inhibition curve with a large enough effect; inconclusive = small, poorly fitted or top-dose-only effect; inactive = no such curve, though single readings can be large or run the other way; tested in A549 cells; further: nearly all actives have a fitted effect of over 35% in size; inactives centre near -10
An asterisk follows results filed as active; i = inactive; ? = inconclusive; nt = no result given; & = joins results of further samples; [ ] = dose if it differs, or a comment. On the % scale 0 is the no-effect control and ±100 the full control effect; potency means the concentration at half of the fitted maximal effect. An unsorted share of the library, and some 0.88% of all compounds hit somewhere here.

SMILES	VACV Venus inh	Vaccinia mCherry
CCOC(=O)C1CCN(C(c2ccc(C)cc2)c2c(O)cc(C)n(CCOC)c2=O)CC1 (stereo not drawn)	-3.7%	i
O=C(COC(=O)c1ccc(CNS(=O)(=O)c2ccc(F)c(Cl)c2)cc1)NCC1CCCCC1	-4.9%	-21.9%
CCC(=O)N1CCCC1(C)C(=O)Nc1ccc2c(c1)CCN2C(C)=O (stereo not drawn)	-3.9%	i
Cc1c(Cl)cccc1NC(=O)CSc1nccn1C	-13.6%	-0.2%
CC(C)CN(CCNC(=O)c1cc(-c2ccc(Cl)s2)nc2ccccc12)CC(C)C	-18.0%	-24.7%
CCc1nnc(NC(=O)CSc2nnc3c(n2)[nH]c2ccccc23)s1	-18.9%	1.0%
NC(=O)c1ccc[n+]([C@@H]2OC(COP(=O)([O-])OP(=O)(O)OCC3OC(n4cnc5c(N)ncnc54)C(O)C3O)C(O)C2O)c1 (stereo partly drawn)	-10.6%	-13.1%
O=C1C(Cc2ccccc2)Nc2ncnc(N3CCOCC3)c2N1Cc1ccccc1 (stereo not drawn)	-12.4%&4.5%	24.1%
Cc1[nH]ccc(=O)c1OCc1c(F)cccc1Cl	-7.9%	i
COc1ccc(C2/C(=C(\O)c3ccc4c(c3)CC(C)O4)C(=O)C(=O)N2Cc2cccnc2)c(OC)c1 (stereo not drawn)	1.9%	-9.6%
CCN(Cc1ccccc1)Cc1c(O)ccc2c(=O)c(-c3ccccc3Cl)c(C(F)(F)F)oc12	2.3%	-11.4%
CCOC(=O)CC(=O)CSc1nc2ccccc2c(=O)n1CCc1ccc(S(N)(=O)=O)cc1	-9.0%	-5.9%
O=C(C[n+]1ccccc1Br)c1ccc(I)cc1	-11.6%	-21.8%
CN(C)C(=O)CSc1nnc(Cc2ccccc2)n1CC1CCCO1 (stereo not drawn)	-8.5%	-1.3%
O=C(Nc1ccc(Cl)cc1Cl)c1cccc(N2C(=O)C=CC2=O)c1	-25.1%	i
Cc1ccc(OCc2nc3c4c(ncn3n2)-c2ccccc2CC42CCCC2)cc1	-1.7%	-20.7%
CCOC(=O)C1CCCN(C(=O)Cn2ncc3c(C)n(Cc4ccc(F)cc4)c(C)c3c2=O)C1 (stereo not drawn)	-4.9%	2.0%
CN(C)C(=O)N1CCC(C(=O)NCc2ccc3c(c2)OCO3)CC1	-10.0%	-8.3%
COc1c2c(nc3ccccc13)OC(C(C)(O)COC(C)=O)C2 (stereo not drawn)	-7.3%	-2.7%
C[C@@H]1CN(C2CCC(C#N)(c3ccc(F)cc3)CC2)CC[C@]1(C(=O)O)c1ccccc1 (stereo partly drawn)	-9.4%	-2.9%

Reprinted from the part before: two compounds, followed by the next part.
SMILES	VACV Venus inh	Vaccinia mCherry
COc1c2c(nc3ccccc13)OC(C(C)(O)COC(C)=O)C2 (stereo not drawn)	-7.3%	-2.7%
C[C@@H]1CN(C2CCC(C#N)(c3ccc(F)cc3)CC2)CC[C@]1(C(=O)O)c1ccccc1 (stereo partly drawn)	-9.4%	-2.9%
COc1ccc(NC(=O)c2cccc(S(=O)(=O)N3CCN(C)CC3)c2)c(OC)c1	-2.1%	3.2%
COc1ccc(CCNC(=O)CCN2N=C(c3ccccc3)CCC2=O)cc1OC	0.5%	-3.8%
CCN1CCCC1Cn1cnc2c([nH]c3cccc(Cl)c32)c1=O (stereo not drawn)	-30.3%	nt
C=CCn1c(NCCO)nc2c1c(=O)n(C)c(=O)n2C	-8.8%	-20.6%
CCCCn1c(N)c(N(CC(C)C)C(=O)C2CCN(S(=O)(=O)c3ccc(OCC)cc3)CC2)c(=O)[nH]c1=O	-10.9%	i
COc1ccc(-c2cc(=Nc3c(C)n(C)n(-c4ccccc4)c3=O)c3ccccc3o2)cc1	-24.4%	-2.3%
C=C1/C=C(\C)C(C)(O)CC(O)CC(=O)C(O)C(O)C(C)CC(C)OC(=O)/C(C)=C/CC/C=C/C(OC)C(O)CC(C)C1 (stereo not drawn)	-3.5%	i
CC1(C(=O)NC2CCN(Cc3ccccc3)CC2)CCN1Cc1cc2ccccc2o1 (stereo not drawn)	-4.8%	42.5%[activator]
Cc1sc(NC(=O)c2ccco2)c(C(c2cccnc2)N2CCN(c3ccc(F)cc3)CC2)c1C (stereo not drawn)	-21.8%	-0.5%
CCc1ccccc1NC(=O)c1ccc(-n2c(C)ccc2C)cc1	-15.8%	-28.0%
Cc1ccc(CSCC(=O)Nc2cc(S(=O)(=O)N3CCOCC3)ccc2OC(C)C)cc1	-9.0%	-13.4%
Cc1cccc(C)c1NC(=O)C1CCCN(S(=O)(=O)c2c(C)noc2/C=C/N(C)C)C1 (stereo not drawn)	-2.4%	-5.6%
Cc1cc(Br)ccc1SCC(=O)OCC(=O)Nc1ncc(C(F)(F)F)cc1Cl	-5.0%	-8.3%
COCCNC(=O)C(=O)N/N=C(\C)CC(=O)Nc1ccc(Cl)cc1Cl	-24.4%	-26.1%
COc1ccc(OC)c(CN2CCN(C(=O)COc3cccc(C)c3)CC2)c1	-27.8%	nt
CCc1ccccc1NC(=O)COc1ccc(N2CC(C(N)=O)CC2=O)cc1 (stereo not drawn)	-6.2%	-20.0%
O=C(Cn1c(-c2ccccc2)c[n+]2ccsc12)c1ccc(Br)cc1	1.5%	i
Cc1ccc2c(c1)c1c(n2CC(O)Cn2c(C)nc3ccccc32)C(=O)CCC1 (stereo not drawn)	-14.7%	0.3%
Cc1ccc(NC(=O)CCN2C(=O)CSC2=O)c(C)c1	-4.8%	nt
CCOC(=O)c1ccc(CNC(=O)Cn2nnc(-c3ccc(C)cc3)n2)o1	-15.1%	-22.0%

Individual results from the results shown:
`O=C(Cn1c(-c2ccccc2)c[n+]2ccsc12)c1ccc(Br)cc1` in VACV Venus inh is listed with 1.5%
`Cc1[nH]ccc(=O)c1OCc1c(F)cccc1Cl` in VACV Venus inh is listed with -7.9%
`Cc1sc(NC(=O)c2ccco2)c(C(c2cccnc2)N2CCN(c3ccc(F)cc3)CC2)c1C` (stereo not drawn) in VACV Venus inh is listed with -21.8%

(cont.)
SMILES	VACV Venus inh	Vaccinia mCherry
Nn1c(=S)[nH]nc(Cc2ccc(O)cc2)c1=O	-1.6%	-8.9%
Cc1ccc(C(CNC(=O)c2ccc(Br)o2)N2CCN(C)CC2)cc1 (stereo not drawn)	-15.2%	-18.6%
CCCCn1c(N)c(N(CC(C)C)C(=O)c2cccc(OCc3ccccc3)c2)c(=O)[nH]c1=O	-2.9%	-13.2%
C=CCn1c(O)c(C2=c3ccccc3=NC2=O)c2ccccc21	-22.3%	-26.9%
O=C(/C=C/c1ccc(Cl)c(Cl)c1)n1cccn1	-12.0%	-14.9%
O=[N+]([O-])c1cc(S(=O)(=O)NCCCN2CCOCC2)ccc1Cl	-22.6%	-23.1%
O=C1CN(C(=O)c2ccc(S(=O)(=O)N3CCCCC3)cc2)C(c2ccc(F)cc2)c2cc(Br)ccc2N1 (stereo not drawn)	-20.7%	-24.6%
OCCSc1nc(N2CCOCC2)nc(N2CCOCC2)n1	-19.9%	-21.7%
CCCCNc1nc(Oc2ccc(=O)n(C)n2)nc(N2CCOCC2)n1	5.5%	8.0%
COc1cc2c(cc1OC)n(CC(=O)c1ccc(F)cc1)c(=O)n1nc(CCn3nc(C)cc3C)nc21	-13.0%	-17.5%
COc1ccc(-c2csc(-c3cccs3)n2)cc1OC	-10.8%	-3.5%
Cc1cccc(S(=O)(=O)c2cn(C)c3cc(N4CCN(c5ccc(F)cc5)CC4)c(F)cc3c2=O)c1	-11.9%	-3.6%
CC(C)(C)OC(=O)N1CCC(c2c(C(=O)N3CCN(c4ccccc4F)CC3)cnn2-c2ccccc2Cl)CC1	-7.6%	-14.5%
C/C(=N\NC(=O)Cc1csc(N2CCOCC2)n1)c1ccc(Cl)c(Cl)c1	13.0%	-15.1%
CCOc1ccc(C(=O)Nc2ccc3nc(Nc4cccc(C(F)(F)F)c4)cc(C)c3c2)cc1OCC	-5.7%	2.9%
CCOCCn1c(N2CCN(c3ccc(OC)cc3)CC2)nc2c1c(=O)[nH]c(=O)n2C	-6.5%	-11.9%
Cc1cc(=O)[nH]c2c1c(C)nn2C1CCCCC1	-3.4%	-14.0%
CCOc1ccccc1N1CC(C(=O)NCCC2=CCCCC2)CC1=O (stereo not drawn)	-8.9%	-15.1%
Cc1cc(C)c(NC(=O)c2sc3nc(C)cc(C)c3c2N)c(C)c1	-7.0%	-5.8%
C[N+]1=C(/C=C/Nc2ccccc2)C(C)(C)c2ccccc21	74.7%[activator]	2.3%
COc1ccccc1CNC(=O)C1CCN(S(=O)(=O)N2CCCCC2)CC1	-7.7%	-13.0%
Cc1cccc(C)c1NC(=O)CNC(=O)Cc1c[nH]c2ccccc12	-17.5%	i
C=CCNC(=O)c1ccc(C)c(Br)c1	?	nt
O=C(NCCN1CCC(n2c(=O)[nH]c3ccccc32)CC1)c1cccnc1	1.8%	0.1%
COc1ccc(NC(=S)N2CCC(C(O)(c3ccccc3)c3ccccc3)CC2)cc1	-13.8%	-22.7%
COc1cc(CSC)nc(-c2ccccc2)n1	0.5%	i
O=C(CNC(=O)c1ccccc1)OCc1ccc([N+](=O)[O-])cc1	-1.8%	-9.4%
Cn1ncc(Br)c1N1C(=O)CCC1=O	-12.4%	i
CCOC(=O)c1nsnc1NCCSC(=N)N	-15.3%	i
COc1cc2c(cc1OC)-c1cc(Nc3ccc(C(=O)O)cc3)nc(=O)n1CC2	-10.3%	i
Cc1cc(C)cc(OCCNC(=O)c2cc(S(=O)(=O)N3CCOCC3)ccc2F)c1	?	-18.9%
Cc1ccccc1NC(=O)Cn1nnc(C(=O)NCc2ccco2)c1N	3.98µM*	?
COCCNC(=O)COC(=O)c1cc(-c2ccc(OC)cc2)nc2ccccc12	-6.2%	i
O=C(CCC(=O)c1ccccc1)NCc1cccc(C(F)(F)F)c1	-11.8%	-15.4%
Cc1ccc(-c2cc(C(F)(F)F)n3nc(C(=O)Nc4sc5c(c4C#N)CCC(C)C5)cc3n2)cc1 (stereo not drawn)	-1.1%	-5.6%
COc1ccc(CCNC(=O)C23CCC(C)(C(=O)C2Br)C3(C)C)cc1OC (stereo not drawn)	-13.7%	-13.5%
COc1ccc2c(C)cc(SCC(=O)N3CCOCC3)nc2c1	11.3%	-11.8%
Cc1cc(NC(=O)c2ccccc2F)cc(C)c1OCC(=O)N1CCOCC1	-7.7%	-0.8%
COc1ccc(S(=O)(=O)N2CCN(c3c(C)cccc3C)CC2)cc1OC	-4.5%	-5.7%
CC1=C(C(=O)N2CCN(C(=O)c3ccco3)CC2)C2(CCC(C)CC2)OC1=O (stereo not drawn)	-4.6%	0.5%
CCCS(=O)(=O)NC(=O)C1(C)CCN(C(=O)c2ccc3c(c2)OCO3)C1 (stereo not drawn)	2.5%	35.1%[activator]
COc1ccccc1C(=O)CSc1ccccn1	-7.7%	-17.7%
Cc1cc(C(=O)C(C(c2ccccc2)N2CCOCC2)N2CCOCC2)ccc1Cl (stereo not drawn)	-15.0%	-15.1%
COc1ccc(OCCn2cnc3ccccc32)cc1	26.0%	-11.1%
COc1ccc2[nH]c3c(c2c1)CCN1C(=O)C(CC(=O)NCc2cccc(C(F)(F)F)c2)C[C@H](C(=O)N(C(C)C)C(C)C)[C@@]31C (stereo partly drawn)	?	?
CCOc1ccc(N2C(N)=NC(N)=NC2(C)C)cc1	?	-0.5%
O=C(CCO)c1ccc(O)cc1	-1.7%	-4.9%
COc1ccc(OC)c(/C=C/C(=O)OCC(=O)NCc2cccs2)c1	-13.6%	-14.7%
CC(C)c1ccc(NC(=O)C2CCCN2S(=O)(=O)c2ccc3nc(-c4ccccc4)[nH]c3c2)cc1 (stereo not drawn)	-16.8%	-15.9%
Clc1ccccc1-c1cc(COc2ccc3ccccc3c2)no1	-11.2%	-16.1%
Cn1cccc1Cc1nnc(SCC(=O)NCc2ccco2)n1-c1ccc(F)cc1	-13.9%	-8.9%
Cc1cc(C(=O)O)ccc1NCc1ccncc1	-3.8%	i
COCCNC(=O)CCSCc1ccccc1F	16.1%	11.9%
CC(C)OC12Oc3ccccc3C=C1N1CCC2CC1 (stereo not drawn)	-6.5%	nt
Cc1ccc(S(=O)(=O)c2nnn3c2nc(NCc2cccs2)c2sccc23)cc1C	?	?
O=C(NC(=S)NCc1cccnc1)c1ccccc1	-0.8%	i
CC(C)C[C@@H](CN1CCCC1CN1C(=S)NC[C@@H]1Cc1ccc(O)cc1)N1C[C@H](Cc2ccccc2)N(CCc2ccccc2)C1=S (stereo partly drawn)	?	-18.9%
Cc1c(-c2n[nH]c(=S)n2-c2ccc(C(F)(F)F)cc2)nnn1-c1ccccc1	-1.8%	-6.0%
CCCCNC(=O)c1c(C)oc2ncn(CC(C)C)c(=O)c12	-18.7%	-18.2%
CC(=O)Oc1ccc(C2=Cc3ccc(OC(C)=O)cc3OC2C)cc1 (stereo not drawn)	-16.2%	10µM*

Later entries
SMILES	VACV Venus inh	Vaccinia mCherry
CC(C)(C)c1cc(CCC(=O)NN)cc(C(C)(C)C)c1O	-11.6%	2.3%
O=C1OCCC1Sc1nnc(-c2cccnc2)n1-c1ccccc1F (stereo not drawn)	-13.0%	i
CCn1ncc(NC(=S)Nc2ccc(OC)c(OC)c2)c1C(N)=O	-10.3%	-10.1%
CCOC(=O)c1scc(-c2ccc(C)cc2)c1S(=O)(=O)Nc1cccc(CC)c1	-5.6%	-23.2%
COc1ccc(CC2S/C(=C(\C#N)C(=O)NCc3ccco3)N(c3ccc(C)cc3)C2=O)cc1 (stereo not drawn)	-3.1%	nt
O=C(/C=C/c1ccc(O)cc1)OCc1occc(=O)c1O[C@@H]1OC(CO)[C@@H](O)[C@H](O)[C@@H]1O (stereo partly drawn)	-12.4%	-2.7%
